High-throughput results as filed in PubChem.
CDC25B-CDK2 inh – primary biochemical HTRF screen for blockers of M-phase inducer phosphatase 2 binding to CDK2/cyclin A. P30305+P24941. HTRF CDC25B-CDK2/CyclinA binding, anti-His/anti-Flag; hits give high values. z-score (no concentration beside the values). actives 0.72% (n = 94,000);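 also: score is relative to mean and SD of negative controls; strong numbers were not always called active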
HIV TAR-Tat – TAR RNA-Tat peptide displacers, HIV-1, primary screen, biochemical, FRET, FAM/TAMRA-labeled Tat; HIV-1 TAR RNA, Tat peptide displacement FRET; hits give high values; z-score (test concentration not listed); actives 0.6% (n = 100,000);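 also: score is relative to mean and SD of negative controls; some compounds called inactive have numbers as strong as hits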
* marks the source's active call; other numbers are inactive results; nt = not tested or not shown.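 The calls were made as follows: active = z-score from 3 up in half or more of its runs; inactive = the rest.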 Compounds were not picked by outcome; overall some 0.9% were active at least once.

SMILES	CDC25B-CDK2 inh	HIV TAR-Tat
O=C(C1=C(N2CCOCC2)c2ccccc2S1(=O)=O)N1CCOCC1	nt	1.02
COCCCNC(=O)c1noc2ncnc(N3CCOCC3)c12	nt	-2.33
N#C/C(=N\OC(=O)c1ccc(C(F)(F)F)cc1)S(=O)(=O)c1cccs1	0.05	nt
COC(=O)c1ccc(-c2ccco2)n1CC(=O)N1CCCCC1	nt	2.05
Cc1ccc(NC(=O)C2Sc3nnc(C)n3NC2c2ccc(F)cc2)c(C)c1 (configuration not stated)	-0.59	1.92
CNc1oc(/C=C/c2cccs2)nc1C#N	-2.44	1.3
CN1CCN(c2ncnc3c2c(-c2ccccc2)cn3-c2cccc(C(F)(F)F)c2)CC1	0.87	nt
CCCc1cc(=O)oc2c(C)c(OCC(N)=O)ccc12	-0.59	nt
CCc1ccc(CNCc2cccnc2)cc1	-0.8	0.61
COc1ccc(Cc2nc3c4cnn(-c5ccc(C)cc5)c4ncn3n2)cc1OC	-0.85	1.63
COc1cc(/C=N/NC(=S)Nc2ccc(F)cc2)ccc1OC(=O)c1ccc(Cl)c(Cl)c1	0.44	nt
CCCCNC(=O)N(C)c1nncnc1C(=O)NC	-0.8	-0.01
CCCC(C(=O)Nc1ccc2c(c1)OCCO2)N1Cc2ccccc2C1=O (configuration not stated)	nt	0.03
Cc1cc(=O)nc2c3ccccc3n(C(C)C(=O)NCCCN3CCN(C4CCCCC4)CC3)n12 (configuration not stated)	-1.14	-0.27
O=C(NCCc1ccccc1)c1ccco1	-1.41	nt
Cc1nn(C(C)C(=O)NC2CCCc3ccccc32)c2ccccc12 (configuration not stated)	-1.13	0.35
COc1ccc(Cc2nc(-c3ccc(Cl)cc3)no2)cc1	-1.61	-0.3
OCCCc1cn(-c2ccccc2)c2ccccc12	0.28	1.18
CCOC(=O)c1ccc(Oc2nc(C)nc3sc(C(=O)OCC)c(C)c23)cc1	nt	1.14
Cc1n[nH]c(C)c1CCc1nc2c3ccccc3nc(NCc3ccccc3)n2n1	0	0.42
O=C(CSc1nc(-c2ccco2)nc2cc(=O)[nH]n12)Nc1ccc2c(c1)OCO2	nt	-0.88
CN(CCNC(=O)C1CCCN1c1nnc(N2CCCC2=O)s1)C1CCCCC1 (configuration not stated)	nt	1.26
Cc1ccccc1S(=O)(=O)NCc1ccc(N2CCN(C)CC2)cc1	0.84	nt
CC1(C)S[C@@H]2C(N3C(=O)[C@@H](c4ccccc4)NC3(C)C)C(=O)N2[C@H]1C(=O)O (some centres not stated)	nt	1.45
CCc1nnc(NC(=O)C2CCN(c3ncnc4c3nc3n4CCCCC3)CC2)s1	nt	0.08
Cc1c(C)c2cc3c4c(oc3cc2oc1=O)CCCC4	-1.36	nt
Cc1nc2ccccc2c2c1C(=O)N(Cc1ccccc1Cl)C2=O	-1.46	0.27
CCOC(=O)c1cn(Cc2ccc(C)cc2C)c2nc(C)ccc2c1=O	nt	0.98
COc1ccc(C2C(C(=O)c3cccs3)=C(O)C(=O)N2CCCN2CCOCC2)cc1OC (configuration not stated)	0.52	0.34
O=C(CN1C(=O)COc2ccc(S(=O)(=O)N3CCCC3)cc21)N1CCC2(CC1)OCCO2	-1.56	nt
Cc1ccc(SSC(Cl)=NC(=C(C(F)(F)F)C(F)(F)F)C(F)(F)C(F)(F)F)cc1	-1.04	nt
Cc1ccc(-c2noc(-c3nnn(-c4cccc(C)c4)c3C)n2)cc1	nt	0.16
Cc1ccc(CNC(=O)c2cnc(N(C)C)nc2)o1	nt	2.13
CCCNc1nc(N(C)C)nc2c1cnn2C	nt	1.38
CC1Cc2cc(S(=O)(=O)N3CCC(C(=O)N(C)Cc4ccco4)CC3)ccc2N1C(=O)C1CC1 (configuration not stated)	nt	1.51
CCc1cccc(CC)c1NC(=S)NN	-1.12	nt
Cc1nn(C(C)C(=O)N2CCc3ccccc3C2)c(=O)c2cc3occc3n12 (configuration not stated)	-0.32	-0.31
Cc1ccc(S(=O)(=O)N2CCN(Cc3ccccc3)CC2)cc1	-1.43	nt
N#Cc1c2c(c(NCCCN3CCOCC3)n3c1nc1ccccc13)CCCC2	-1.85	0.19
CC1CCN(C(=O)c2cc3c(s2)-c2ccsc2CC3)CC1	nt	1.29
CCc1nnc2c3ccccc3nc(Nc3cccc(C)c3)n12	-0.8	0.25
O=C1C(=O)N(CCO)C(c2ccccc2)/C1=C(/O)c1ccccc1 (configuration not stated)	-1.12	-0.77
CN(C)C(=O)c1ccc(S(=O)(=O)NC2CCCC2)s1	nt	1.8
CC(=O)N1c2ccc(S(=O)(=O)N3CCCCC3)cc2CC1C(=O)Nc1ccc2c(c1)OCCO2 (configuration not stated)	nt	0.7
CCc1ccc2occ(CC(=O)N(Cc3ccc(N(C)C)cc3)C3CCS(=O)(=O)C3)c2c1 (configuration not stated)	-0.93	1.92
CCOc1ccc(-c2noc(-c3nnn(-c4ccc(C)c(C)c4)c3N)n2)cc1	nt	-0.25
Cc1cc(C)c(NS(=O)(=O)c2cc(-c3cc(C)no3)ccc2C)c(C)c1	nt	0.46
CC(=O)c1ccc(-c2ccccc2OC(F)(F)F)o1	-1.19	nt
O=C(C1CCC(CNc2c(N3CCCC3)c(=O)c2=O)CC1)N1CCc2ccccc21 (configuration not stated)	-1.05	0.05
O=C(Nc1ccc2nc(SCc3cc(=O)n4ccsc4n3)sc2c1)c1ccco1	nt	0.07
CCn1c(-c2ccccc2C)n[nH]c1=S	1.41	nt
COC(=O)C1(C(F)(F)F)N=C(N2CCCCC2)OC(N2CCCCC2)=N1	0.82	nt
Cc1ccc2c(=O)cc(C(=O)Nc3nc4ccc(S(C)(=O)=O)cc4s3)oc2c1C	-1.12	1.24
CCCCN(CC)C(=O)Cn1ncc2c1-c1cc(C)ccc1OC2	0.04	0.84
CC(C)N(C(=O)C(C)n1nc(-c2ccc3c(c2)OCCO3)ccc1=O)C(C)C (configuration not stated)	-0.34	1.44
Cc1ccc(S(=O)(=O)Nc2ccc(-c3cn4cccc(C)c4n3)cc2)cc1	-1.73	-1.81
Cc1cc(=O)n2[nH]c(-c3ccc(F)cc3)nc2n1	0.42	-0.12
COc1cc(Cl)cc2c1OC=CC(C(=O)Nc1nccs1)=C2	-0.3	-0.33
COc1ccc(C2CC(=O)c3cnc(N4CC(C)CC(C)C4)nc3C2)cc1OC (configuration not stated)	-1.58	-1.04
CCOC(=O)c1sc2ccccc2c1S(=O)(=O)N1CCC(C(N)=O)(N2CCCCC2)CC1	nt	1.02

Structures from the list above that contain two or more sulfur atoms, in the order listed:
SMILES	CDC25B-CDK2 inh	HIV TAR-Tat
N#C/C(=N\OC(=O)c1ccc(C(F)(F)F)cc1)S(=O)(=O)c1cccs1	0.05	nt
Cc1ccc(SSC(Cl)=NC(=C(C(F)(F)F)C(F)(F)F)C(F)(F)C(F)(F)F)cc1	-1.04	nt
CC1CCN(C(=O)c2cc3c(s2)-c2ccsc2CC3)CC1	nt	1.29
CN(C)C(=O)c1ccc(S(=O)(=O)NC2CCCC2)s1	nt	1.8
O=C(Nc1ccc2nc(SCc3cc(=O)n4ccsc4n3)sc2c1)c1ccco1	nt	0.07
Cc1ccc2c(=O)cc(C(=O)Nc3nc4ccc(S(C)(=O)=O)cc4s3)oc2c1C	-1.12	1.24
CCOC(=O)c1sc2ccccc2c1S(=O)(=O)N1CCC(C(N)=O)(N2CCCCC2)CC1	nt	1.02

Going on with the list:
SMILES	CDC25B-CDK2 inh	HIV TAR-Tat
CN(CC(=O)NC1CCCc2ccccc21)S(=O)(=O)c1cccc2cccnc12 (configuration not stated)	-1.15	-1.16
CCOc1ccccc1C1CC(c2ccc(F)cc2)Nc2nc(N)nn21 (configuration not stated)	-0.36	0.04
Cc1ccc(-c2cnc3n2CCCCC3)cc1	-1.97	0.54
Cc1cn2c(=O)cc(COc3cc(C)c(Cl)c(C)c3)nc2s1	0.59	-2.49
COC(=O)c1cc(-c2ccc(OC)cc2)c(-c2ccc(OC)cc2)s1	-1.32	nt
Cc1nc2n(CCN3CCOCC3)c3ccccc3n2n1	-0.53	-2.56
Cc1ccc(C2C=C(c3ccc(Cl)cc3)Nc3nc(NS(C)(=O)=O)nn32)cc1 (configuration not stated)	-0.75	-1.64
Cc1ccc(C)c(Cn2nc(-c3ccc(C)c(S(=O)(=O)N4CCCC4)c3)ccc2=O)c1	-1.89	-0.45
CC(C)(C)C(=O)NCC(c1ccco1)S(=O)(=O)c1ccc(F)cc1 (configuration not stated)	nt	2.05
CCCCc1c(C)c(C#N)c2nc3ccccc3n2c1-n1ccnc1C	-0.49	0.2
CCOc1ccc(N2CC(c3nc4ccccc4n3CCC(C)C)CC2=O)cc1 (configuration not stated)	2.07	0.89
Cc1c(C(=O)C(=O)NC2CC(C)CC(C)(C)C2)c2ccccc2n1C (configuration not stated)	-1.65	nt
O=C(NCc1ccco1)C1CCN(c2ccc(Cl)cc2)C1=O (configuration not stated)	nt	0.66
CC1Cc2cc(S(=O)(=O)CCC(=O)Nc3ccccc3Cl)ccc2N1C(=O)C1CC1 (configuration not stated)	nt	0.15
COc1ccc(OC)c(-c2noc(Nc3cccc(F)c3)n2)c1	nt	-0.02
CCSCCOC(=O)C1=C(C)NC2=C(C(=O)CC(C)(C)C2)C1c1ccsc1 (configuration not stated)	-1.2	0.41
CC(O)Cc1nsc(NC(=O)c2cccs2)n1 (configuration not stated)	0.65	nt
Cc1ccc(-c2cc3c4c(C)n(C)c(C)c4c(C)nn3c2)o1	15.8*	35.6*
COc1ccc(NC(=O)c2cc3cc4ccc(OC)c(Cl)c4nc3s2)cc1	nt	-0.63
O=C(Nc1c2c(nn1-c1cccc(Cl)c1)CS(=O)C2)c1cccs1 (configuration not stated)	-0.11	nt
O=C(CSC1NN=C(CCC(=O)N2CCCC2)C(=O)N1c1ccccc1)Nc1ccccc1F (configuration not stated)	-0.61	1.28
Cc1cc(-c2ccc(C)c(S(=O)(=O)Nc3ccc(F)cc3F)c2)on1	nt	0.7
O=S(=O)(NCc1cccs1)c1ccc2[nH]c3c(c2c1)CCCC3	nt	-7.35
COC(=O)c1[nH]c2cscc2c(=O)c1C(=O)OC	-2.05	nt
Nc1ncnc2c1ncn2[C@@H]1O[C@H](CO)C[C@@H]1O	nt	-2.51
CSc1cccc(NC(=O)CSc2nc(-c3ccc4c(c3)OCO4)nc3cc(=O)[nH]n23)c1	nt	21.9*
CCCNc1nc(N2CCCC2)nc2c1cnn2C	nt	0.66
CC(=O)c1sc(-c2ccc(-c3cccs3)s2)nc1C	-2.45	nt
Cc1ccc(-n2ccc(=O)c(C(=O)Nc3c(C(=O)Nc4ccccc4)oc4ccccc34)n2)cc1	0.43	0.23
CC(=O)N1c2ccc(S(=O)(=O)N3CCCC3)cc2CC1C(=O)NCCC(C)C (configuration not stated)	nt	1.62
CCN(CC)CCCNC(=O)c1oc2ccc3c(c2c1C)C(O)CC(C)(C)O3 (configuration not stated)	nt	0.71
Cc1nc2ncnn2c(Nc2ccc(F)c(Cl)c2)c1C	nt	1.25
O=C(Nc1ccccc1)OC1CCS(=O)(=O)C1 (configuration not stated)	-4.04	nt
CCN1CCN(c2ncc3c(n2)CCN(Cc2cccc(C)c2)C3)CC1	nt	1.41
Cc1cc2nsnc2c(S(=O)(=O)N2CCN(C)CC2)c1C	-1.21	0.89
O=C(Cc1ccccc1)Nc1nc2nc(-c3ccccc3)cc(=O)n2[nH]1	-2.17	-1.03
Cn1nnnc1SCC1=C(C(=O)O)N2C(=O)C(NC(=O)C(O)c3ccccc3)C2SC1 (configuration not stated)	0.31	0.9
O=c1c2ccccc2ncn1Cc1noc(CNS(=O)(=O)c2ccccc2)n1	nt	0.47
Cc1cccn2c(Nc3ccc4c(c3)OCCO4)c(-c3ccc(O)cc3)nc12	0.82	0.06
CC(C)NC(=O)CCC(=O)N1CC2CCCN2c2ccccc21 (configuration not stated)	nt	-1.36
CC1=C(C(=O)NCc2ccccn2)C2(CCC(C)CC2)OC1=O (configuration not stated)	0.44	nt
Cc1ccc(-c2cnnc(-n3nc(C)c4c3NC(=O)CC4c3ccccc3C)n2)cc1 (configuration not stated)	-1.04	0.76
COC(=O)C(Cc1c[nH]c2ccccc12)NS(=O)(=O)c1ccc(Cl)cc1 (configuration not stated)	-0.34	nt
COc1cc(C2CC(=O)N3CN(Cc4ccccc4)CSC3=C2C#N)ccc1O (configuration not stated)	4.04*	-0.46
CCN1CCN(CCCNC(=O)CCCN2C(=O)CSc3ncccc32)CC1	-2.06	-0.27
Cc1sc2c(c1C)C(=O)/C(=C\Nc1ccccc1Cl)S(=O)(=O)N2C	1.26	nt
CCN(CC)CCCNc1cc(-c2ccccc2)nc(C)n1	-0.64	0.67
O=C(Cn1ncn2nc(-c3cccs3)cc2c1=O)NCc1ccco1	-1.66	0.85
COc1ccc(Cl)cc1NC(=O)CSc1nc2c(c(=O)[nH]1)CCCC2	-0.51	0.21
CC(NS(C)(=O)=O)C(c1cccs1)N1CCN(c2ccccc2F)CC1 (configuration not stated)	-1.92	nt
O=C(CSc1nc2nccnc2c(=O)n1Cc1ccco1)Nc1ccc(Br)cc1	-0.32	0.63

Ordered by molecular weight (largest number first): some entries from above.
SMILES	CDC25B-CDK2 inh	HIV TAR-Tat
CC(NS(C)(=O)=O)C(c1cccs1)N1CCN(c2ccccc2F)CC1 (configuration not stated)	-1.92	nt
O=c1c2ccccc2ncn1Cc1noc(CNS(=O)(=O)c2ccccc2)n1	nt	0.47
CCN1CCN(c2ncc3c(n2)CCN(Cc2cccc(C)c2)C3)CC1	nt	1.41
